# SARS PLpro yeast: SARS-CoV PLP inhibition in yeast | Potency, µM (top dose mostly 32.9 µM), inactives show at the highest dose activity, positive = growth rescue | actives 0.19% (n = 330,000) | AID 485353 | S. cerevisiae expressing SARS-CoV PLpro, growth rescue; control for the full effect not named in the record; note: 0% is about no effect; nearly all actives have a fitted effect of over 55% in size; growth read by luminescence after 48 h
# NS1 inh: blocks influenza NS1 protein function; actives 0.4% (n = 270,000); S. cerevisiae slowed by influenza A NS1, growth recovery by OD600; Potency, µM (doses to about 46.1 µM), inactives show at the top dose activity, positive = more growth; note: actives are rising curves; nearly all actives have a fitted effect of over 50% in size
#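 Compounds were scored for reversing the slow growth caused by influenza A NS1 in S. cerevisiae, measured by optical density at 600 nm. Assay medium contained 2% galactose at pH 6.0; NS1-free yeast of the same strain were the positive control.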
# An asterisk follows results filed as active; ? = inconclusive; [ ] = another dose, or the depositor's remark. Calls come from the whole dose curve; as a rule, active means well fitted rising curve with a large enough effect; inconclusive means small, poorly fitted or top-dose-only effect; inactive means no such curve, though single readings can be large or run the other way. Potency is the fitted concentration of half-maximal effect. An excerpt (hit frequency here may not be typical).
SMILES,SARS PLpro yeast,NS1 inh
Cn1c2ccccc2c2nnc(SCc3nnc(-c4ccccc4)o3)nc21,0%,1%
Cc1ccc(NC(=O)c2ccc(Cn3cc(Cl)cn3)o2)c(C)c1,-8%,-11%
COC(=O)C1=C(C)NC(C)=C(C(=O)OCC2CCCO2)C1c1ccc(Cl)c([N+](=O)[O-])c1 (stereo not drawn),-11%,-58%
COc1ccccc1C(=O)NCC(=O)NNc1ncnc(N)c1[N+](=O)[O-],0%,6%
N/C(=N\OC(=O)COc1ccc2ccccc2c1Br)c1ccncc1,-3%,-1%
Cc1ccc(C(=O)NC(C)c2nc3ccccc3n2CC(=O)Nc2c(C)cc(C)cc2C)cc1 (stereo not drawn),3%,-52%
O=Cc1sc(N2CCOCC2)nc1-c1ccccc1,0%,-2%
Cc1c(Cl)cccc1NC(=O)C1CCCCC1,0%,3%
CC(=O)Nc1ccc(NC(=O)Cc2ccc(F)cc2)cc1,1%,4%
CCCCCCN(C(=O)CCCCCN1C(=O)NC(c2ccc(-c3ccccc3)cc2)C(C(=O)OCc2ccccc2)=C1C)C(C(=O)NCCCC)c1ccc(OCC(=O)OC)c(C(=O)OC)c1 (stereo not drawn),2%,11µM*
COc1cc([C@@H]2c3cc4c(cc3[C@@H](NC3CCN(Cc5ccccc5)CC3)[C@H]3COC(=O)[C@H]23)OCO4)cc(OC)c1O,-5%,-13%
CCn1cc(C(=O)Nc2ccc(C)cc2C)c(=O)c2ccc(C)nc21,0%,-2%
CCc1cc2c(=O)c(-c3ccc(F)cc3)c(C(F)(F)F)oc2cc1OCC(=O)O,1%,3%
Cc1cc(C)n(-c2nc(SCC(=O)O)c3c4c(sc3n2)CCCC4)n1,0%,2%
CCN(CC)S(=O)(=O)c1ccc(NC(=O)c2nc3nc(C)cc(C)n3n2)cc1,0%,4%
O=C(O)c1cccc(N2C(=O)CCC2=O)c1,1%,3%
Clc1ccccc1CSc1nncn1-c1cccnc1,-1%,-10%
O=C(CC(c1ccccc1)c1ccco1)N1CCCCC1 (stereo not drawn),-1%,-2%
O=S(=O)(c1ccc(F)cc1)N1CCCc2ccccc21,-8%,-23%
COC(=O)C1=C(C)N(Cc2ccccc2)C(=S)N[C@H]1CCc1ccccc1,12%,13%
COc1cc(/C=C(\C#N)C(=O)Nc2cccc3ncccc23)ccc1O,0%,12%
Cn1c(SCC(=O)O)nnc1-c1ccc2ncccc2c1,0%,8%
COc1ccc(/C=C/C(=O)OCC(=O)Nc2cc3oc4ccccc4c3cc2OC)cc1,0%,7%
Cc1ccccc1OCC(=O)NCC(=O)N/N=C/c1cccc([N+](=O)[O-])c1,0%,-1%

# Entries shown so far that contain an aryl methoxy group (four):
SMILES,SARS PLpro yeast,NS1 inh
COc1ccccc1C(=O)NCC(=O)NNc1ncnc(N)c1[N+](=O)[O-],0%,6%
COc1cc([C@@H]2c3cc4c(cc3[C@@H](NC3CCN(Cc5ccccc5)CC3)[C@H]3COC(=O)[C@H]23)OCO4)cc(OC)c1O,-5%,-13%
COc1cc(/C=C(\C#N)C(=O)Nc2cccc3ncccc23)ccc1O,0%,12%
COc1ccc(/C=C/C(=O)OCC(=O)Nc2cc3oc4ccccc4c3cc2OC)cc1,0%,7%

# Back to the main list with the 2 entries that preceded the break.
SMILES,SARS PLpro yeast,NS1 inh
COc1ccc(/C=C/C(=O)OCC(=O)Nc2cc3oc4ccccc4c3cc2OC)cc1,0%,7%
Cc1ccccc1OCC(=O)NCC(=O)N/N=C/c1cccc([N+](=O)[O-])c1,0%,-1%
CCN(CC)c1ccc2cc(/C(N)=N/NC(=O)c3cccs3)c(=O)oc2c1,0%,?
Cc1cccc(CN2CCN(CCCc3ccccc3)CC2)c1,0%,4%
O=C(O)c1ccc(-c2ccc(-c3ccccc3)cc2)s1,-1%,-17%
NS(=O)(=O)c1ccc(-c2ccc(C=C3C(=O)NC(=S)NC3=O)o2)cc1,1%,1%
COc1ccc(C(=O)Nc2nnc(CC(=O)N/N=C/c3ccc(O)cc3O)s2)cc1,1%,5%
C#CCOCCOCCOCCNc1nc(N2CCN(C(=O)[C@H](CCC(=O)O)n3cc(C(N)Cc4ccc(O)cc4)nn3)CC2)nc(N2CCN(C(=O)[C@H](Cc3ccc(O)cc3)n3cc(C(N)CC(C)C)nn3)CC2)n1 (stereo partly drawn),0%,-1%
C#CCOCCOCCOCCNc1nc(N2CCN(C(=O)[C@H]([C@@H](C)CC)n3cc([C@@H](N)Cc4ccc(O)cc4)nn3)CC2)nc(N2CCN(C(=O)[C@H](CCCCN)n3cc([C@@H](N)CO)nn3)CC2)n1,1%,8%
O=C1CCCCC1C(O)c1ccc(Cl)cc1 (stereo not drawn),6%,5%
COC(=O)c1c(C)[nH]c(C(=O)N2CCN(c3ccc(OC)cc3)CC2)c1C,1%,-2%
Cn1c2ccccc2c(=O)c2c(=O)n(Cc3ccco3)c(-c3ccc(C(C)(C)C)cc3)nc21,0%,4%
CN1CCN(C(c2ccc(C(F)(F)F)cc2)c2cc(Cl)c3cccnc3c2O)CC1 (stereo not drawn),-15%,-127%
C(=N\Nc1nc(N2CCOCC2)nc(N2CCOCC2)n1)/c1ccco1,-2%,12%
O=C(NC1CCCCC1)C(c1ccc(Cl)cc1)N(C(=O)c1ccccn1)c1cccnc1 (stereo not drawn),-1%,-1%
Cc1nc2n(n1)C(O)c1cc([N+](=O)[O-])ccc1S2 (stereo not drawn),0%,5%
CCOc1ccc(NC(=O)c2c(NC(=O)CN3CCN(C)CC3)sc3c2CCC3)cc1,2%,-6%
O=c1c2ccccc2nc2c3ccccc3c(Cl)nn12,0%,5%
O=c1[nH]c(=O)n(Cc2ccc(Oc3ccccc3)cc2)cc1Br,0%,-4%
COc1ccc(C)cc1NC(=S)NC12CN3CN(CN(C3)C1)C2,-1%,5%
O=C1C([N+](=O)[O-])=C(O)c2cccc3cccc1c23,2%,9%
COc1ccc([C@]23Cc4ccccc4C(O2)c2c(cc(C)n(Cc4ccccc4)c2=O)O3)cc1,-13%[6.58 µM],-25%
CC1=NN(c2ccc(C(=O)O)cc2)C(=O)/C1=C/c1ccc(-c2ccccc2F)o1,1%,-1%
Cc1nc(SCc2ccccc2F)c2cnn(-c3ccccc3)c2n1,3%,1%
O=C(/C=C/c1ccccc1)NC1CC2CCCC(C1)N2Cc1ccccc1 (stereo not drawn),-1%,4%
O=C1CCCC2=C1C1O[C@](c3ccsc3)(Cc3c1ccc1ccccc31)O2,-12%[6.58 µM],-2%
CCCCn1c(=O)[nH]c(=O)c2c1nc(-c1ccc(CC)c([N+](=O)[O-])c1)n2C,0%,5%
COC(=O)CCC(=O)OC1(C)C(=O)C2=CN(CC(C)C)C(c3ccc(OC)cc3)=CC2=C(Br)C1=O (stereo not drawn),-2%,30%
C/C(=N/O)c1ccc(N2C(=O)C3C4C=CC(C3C2=O)C2C3C(=O)N(c5ccc(/C(C)=N/O)cc5)C(=O)C3C42)cc1 (stereo not drawn),0%,9%
O=C(O)c1cc(-c2ccccc2)nc2nc(N3CCCCC3)sc12,1%,2%
CC(=O)N[C@@H](C)c1nc2ccccc2n1CCNC(=O)[C@H]1CCCN1c1nc(CN2CCCCC2)cs1,9%,-17%
CCOC(=O)c1cc(-c2ccc(C)c([N+](=O)[O-])c2)nc2c1c(=O)n(C)c(=O)n2C,0%,0%
COc1cc([N+](=O)[O-])ccc1-c1ccc(/C=N/NC(=O)c2ccccc2O)o1,0%,0%
COC(=O)CCC(=O)OC1(C)C(=O)C2=CN(C(CO)CO)C(c3ccc(OC)cc3)=CC2=C(Br)C1=O (stereo not drawn),-2%,-2%
[O-][n+]1c2c(nc3c1-c1ccccc1C3O)CCCC2 (stereo not drawn),-1%,-1%
COc1ccc(CNS(=O)(=O)c2ccccc2Br)cc1,4%,-1%
O=C(Nc1ccc(-c2nnn(CC(=O)N3CCN(C(=O)c4ccco4)CC3)n2)cc1)c1ccccc1F,0%,8%
Cc1ccc(C(=O)NC2CCCc3c2cnn3-c2ccc(F)cc2F)cn1 (stereo not drawn),-2%,-12%

# Profiles, looked up by structure.
# `COC(=O)CCC(=O)OC1(C)C(=O)C2=CN(CC(C)C)C(c3ccc(OC)cc3)=CC2=C(Br)C1=O` (stereo not drawn) is listed as SARS PLpro yeast = -2%; NS1 inh = 30%
# `COc1ccc(CNS(=O)(=O)c2ccccc2Br)cc1` is listed as SARS PLpro yeast = 4%; NS1 inh = -1%
# `O=C(O)c1cc(-c2ccccc2)nc2nc(N3CCCCC3)sc12` is listed as SARS PLpro yeast = 1%; NS1 inh = 2%

# The listing continues.
SMILES,SARS PLpro yeast,NS1 inh
CC1=CC(=C2C=CC(=O)C=C2)C=C(C)N1C,0%,-4%
COc1ccc(OC)c(CC(NC(C)=O)C(=O)NC2CCN(c3cc(C)nc4ncnn34)CC2)c1 (stereo not drawn),-1%,-3%
N/C(=N\c1nc(CSc2nnnn2-c2ccccc2)cc(=O)[nH]1)Nc1ccccc1,0%,3%
O=C(CCC(=O)N(CC(=O)NC1CCCCC1)c1ccc2c(c1)OCCO2)Nc1ccccn1,-1%,1%
COc1cc(C)c(Cl)cc1S(=O)(=O)NC1CC(C)(C)NC(C)(C)C1,1%,-1%
O=C(Nc1ccc(C2=NCCN2)cc1)c1ccc(Cl)c(C(=O)Nc2ccc(C3=NCCN3)cc2)c1,2%,-9%
COc1ccc(C2CC(=O)c3cnc(N4CCc5ccccc54)nc3C2)cc1OC (stereo not drawn),1%,2%
CCCN1C(=O)/C(=C\C=C2/Sc3ccccc3N2CC)SC1=S,2%,-3%
CCOC(=O)c1ccc(Cl)c(NC(=O)c2cccnc2)c1,-1%,1%
COC(=O)C1=C(C)N(Cc2cccnc2)C(=O)/C1=C\c1cccs1,-1%,-6%
CCCOc1ccc(N2C(=O)CC(N3CCC(c4nc5ccccc5o4)CC3)C2=O)cc1 (stereo not drawn),-4%,4%
O=c1c2cc(-c3ccccc3)sc2nc2n1CCC2,-1%,-1%
O=C(CSc1nnnn1-c1ccc(O)cc1)N1N=C(c2ccc3ccccc3c2)CC1c1ccccc1 (stereo not drawn),0%,3%
O=C(Nc1cccc(F)c1)c1c(O)c2cccc3c2n(c1=O)CCC3,-3%,4%
C(=C\c1ccccn1)/c1cccnc1,-3%,-2%
COc1cc(NC(=O)c2ccccc2-c2ccccc2)cc(OC)c1OC,-3%,-5%
O=S(=O)(Nc1ccc(O)c2ccccc12)c1ccc(Br)cc1,-9%,-1%
COc1ccc(CCNC(=O)CSc2nnc(-c3ccco3)c(-c3ccco3)n2)cc1OC,3%,23%
CN(C)C=Nc1ccccc1C1C=NNC1=O (stereo not drawn),1%,0%
C#CCOCCOCCOCCNc1nc(N2CCN(C(=O)[C@H]([C@@H](C)CC)n3cc([C@@H](N)CO)nn3)CC2)nc(N2CCN(C(=O)[C@H](Cc3cc4ccccc4[nH]3)n3cc([C@@H](N)Cc4ccc(O)cc4)nn3)CC2)n1,-5%,-63%
N#CC(=C=[N-])c1nc2ccccc2nc1-[n+]1cccc(NC(=O)c2ccc(F)cc2)c1,0%,2%
C/C=C(\C)C(=O)N1CC2(CC(c3cccc(NC(=O)CC(c4ccccc4)c4ccccc4)c3)=NO2)C[C@H]1C(N)=O (stereo partly drawn),-3%,0%
O=C(O)/C(=C\C(=O)c1ccccc1)Nc1ccccc1,0%,9%
O=[N+]([O-])CC(=Nc1ccc(F)cc1)N/N=C\c1oc(O)c2ccccc12,0%,9%

# Given with values under each structure: 4 of the compounds above.
# Results follow in this order: SARS PLpro yeast	NS1 inh
> C#CCOCCOCCOCCNc1nc(N2CCN(C(=O)[C@H](CCC(=O)O)n3cc(C(N)Cc4ccc(O)cc4)nn3)CC2)nc(N2CCN(C(=O)[C@H](Cc3ccc(O)cc3)n3cc(C(N)CC(C)C)nn3)CC2)n1 (stereo partly drawn)
 : 0%	-1%
> C#CCOCCOCCOCCNc1nc(N2CCN(C(=O)[C@H]([C@@H](C)CC)n3cc([C@@H](N)Cc4ccc(O)cc4)nn3)CC2)nc(N2CCN(C(=O)[C@H](CCCCN)n3cc([C@@H](N)CO)nn3)CC2)n1
 : 1%	8%
> O=C1CCCCC1C(O)c1ccc(Cl)cc1 (stereo not drawn)
 : 6%	5%
> COC(=O)c1c(C)[nH]c(C(=O)N2CCN(c3ccc(OC)cc3)CC2)c1C
 : 1%	-2%

# The results go on.
SMILES,SARS PLpro yeast,NS1 inh
O=C(O)c1ccccc1-n1ncc2c1/C(=C/c1ccc(Cl)cc1)CC2,-1%,3%
CCOc1cc(/C=C/c2nc3ccccc3c(=O)[nH]2)cc(Br)c1OC,-1%,2%
CCn1c(CNC(=O)c2ccccc2F)nnc1SCc1nc2ccccc2c(=O)[nH]1,-1%,0%
N#Cc1ccc2c(c1)C[C@]1(c3ccsc3)Oc3c(c(=O)oc4ccccc34)C2O1,-4%[6.58 µM],19%
O=C(N=c1ccn(-c2nc3ccccc3nc2NS(=O)(=O)c2ccc(Cl)cc2)cc1)c1ccccc1Cl,-2%,4%
C[C@@H]1C[C@H]2OC(=O)C3(CO3)[C@H]2[C@H](O)[C@]2(C)C(=O)C3OC3[C@@H]12 (stereo partly drawn),-5%,10%
CCN1CCN(Cc2c(C(=O)N/N=C(\C)c3ccc(Cl)c(Cl)c3)nnn2-c2nonc2N)CC1,0%,-2%
COCC(=O)Nc1cc(C(=O)Nc2ccccc2)ccc1Cl,0%,-34%
CCOc1cc(/C=C2/SC(=S)N(C)C2=O)ccc1Oc1ccc([N+](=O)[O-])cc1[N+](=O)[O-],1%,3%

# Assay outcomes deposited in PubChem by National Center for Advancing Translational Sciences (NCATS).
